DUX4 inh: blocks DUX4-driven transcriptional activation; 293T-iDUX4 ZSCAN4-Gaussia luciferase reporter, 24 h; hits give low values; activity change, negative = inhibition, % (test concentration not listed); 0.8% of 37,000 active;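 active means -10% or lower and over 25 points stronger than a control reporter; inconclusive means -10% or lower with a smaller gap; inactive means above -10%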;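 further: 0% = median of neutral control wells and -100% = median of positive control wells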
DUX4 inh difference: also measured in DUX4 inh; calls as there; Gaussia minus Italica difference, %; measured here: selective DUX4 reporter inhibition;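 worked out from the two reporters; negative = selective loss of the DUX4 reporter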
DUX4 inh control: recorded beside DUX4 inh, whose call it bears; activity change, negative = inhibition, %; measured here: Italica tet-on control reporter;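 0 = neutral control and -100 = positive control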
An asterisk follows results filed as active; u = inconclusive; x = not tested or not shown; & = joins results of further samples.

SMILES	DUX4 inh	DUX4 inh difference	DUX4 inh control
CO[C@H]1CN(C)C(=O)c2cccc(C#N)c2OCC[C@H]2CC[C@@H](OC)[C@@H](CN(C)C(=O)[C@@H]1C)O2	-2	4	-6.0
CCc1cnc(N2[C@@H](C#N)[C@@H](c3ccc(C#CCC4CCCC4)cc3)[C@@H]2CO)s1	0	2	-2.6
COCC(=O)N(C)C[C@H]1[C@@H](c2ccccc2)[C@H](CO)N1C(=O)Cc1ccncc1	-2	-1	-0.9
CCCNC(=O)Nc1ccc2c(c1)C(=O)N(C)[C@H]1CC[C@H](CC(=O)NC)O[C@@H]1CO2	2	0	1.9
COc1cccc(CN(C)C[C@H]2OCc3cnnn3CCCC(=O)N([C@@H](C)CO)C[C@@H]2C)c1	-1	-4	2.9
CCS(=O)(=O)N1CCCCN2[C@H](C1)[C@@H](c1ccc(-c3ccccc3)cc1)[C@@H]2CO	4	-4	8.0
CC(=O)NC[C@@H]1[C@@H](c2ccc(-c3ccccc3F)cc2)[C@@H](CO)N1CCC(F)(F)F	10	2	7.2
O=C(C[C@H]1CC[C@@H]2[C@H](COC[C@H](O)CN2C(=O)c2ccccc2F)O1)N1CCOCC1	15	4	12
N#C[C@@H]1[C@H](c2ccc(C3=CCCCC3)cc2)[C@@H](CO)N1C(=O)NC1CCCC1	1	0	1.0
O=C(c1cccc(F)c1)N1CC2(C1)[C@H](c1ccccc1)[C@@H](CO)N2C(=O)C1CC1	-2	-5	3.1
O=C(C[C@H]1CC[C@@H]2[C@H](COC[C@H](O)CN2CCC(F)(F)F)O1)N1CCC(Cc2ccccc2)CC1	-9	-3	-6.2
CCN1[C@@H]2c3ccc(-c4cccc(F)c4)c(=O)n3C[C@H]1[C@H](CO)[C@H]2C(=O)NCC1CC1	5	-1	6.7
CO[C@@H](CN(C)Cc1ccc(-c2ccccn2)cc1)[C@H](C)CN(C(=O)Nc1ccc(F)cc1)[C@@H](C)CO	-1	2	-3.6
N#C[C@H]1[C@H](c2ccc(C#Cc3ccccc3F)cc2)[C@@H](CO)N1C(=O)C1CC1	2	4	-1.6
CCCNC(=O)N1[C@@H]2CN(C(=O)Nc3cccc(F)c3)c3ccccc3[C@@H]2[C@@H]1CO	0	-2	1.1
CO[C@H]1CN(C)C(=O)c2ccc(NC(=O)c3ccc(F)cc3)cc2OC[C@H](C)N(C(=O)CN(C)C)C[C@H]1C	-1	-5	3.8
COc1ccc(NC(=O)Nc2ccc3c(c2)C(=O)N([C@H](C)CO)C[C@@H](C)[C@H](CN(C)S(=O)(=O)c2cccs2)OCCCC[C@@H](C)O3)cc1	2	2	-0.4
C[C@H](CO)N1C[C@H](C)[C@@H](CN(C)C(=O)c2cc(-c3ccccc3)on2)OCc2cnnn2CCCC1=O	7	7	0.4
CC=Cc1ccc2n(c1=O)C[C@H]1[C@H](CO)[C@@H](C(=O)N(C)C)[C@@H]2N1CC1CC1 (mixture of isomers)	4	2	2.5
COc1cccc(S(=O)(=O)Nc2ccc3c(c2)[C@@H]2C[C@@H](CC(=O)N4CCCCC4)O[C@H](CO)[C@@H]2O3)c1	1	-2	3.0
CCCNC(=O)N1CCC2(CC1)CN(Cc1cccc(OC)c1)[C@@H](CO)c1[nH]c3cc(OC)ccc3c12	3	-3	6.0
CC(C)NC(=O)N1C[C@@H]2[C@H](c3ccccc31)[C@@H](CO)N2C(=O)Nc1cccc(F)c1	0	3	-3.5
CCC(=O)N[C@H]1CC[C@H](CC(=O)NCC2CC2)O[C@@H]1CO	0	-5	5.0
COCCNC(=O)C[C@H]1CC[C@H]2[C@H](COc3ccc(NC(=O)c4cc(C)on4)cc3C(=O)N2C)O1	-3	-3	0.1
OC[C@@H]1[C@@H](c2ccccc2)C2(CN(CCC(F)(F)F)C2)N1Cc1ccccc1	u	x	x
C[C@H](O)C#Cc1ccc([C@H]2[C@@H](CO)N3CCCCN(S(=O)(=O)c4ccccc4)C[C@@H]23)cc1	u	x	x
O=S(=O)(c1ccc(Cl)cc1)N1[C@@H]2CNC[C@H]1C2c1ccc(-c2cccc(F)c2)cc1 (some centres not stated)	7&9	-14&-4	21&12
CCS(=O)(=O)N1CCCCN2[C@H](CO)[C@H](c3ccc(-c4ccc(C(=O)N(C)C)cc4)cc3)[C@H]2C1	19	10	8.9
O=C(CN1CCOCC1)NCC[C@@H]1CC[C@H](NC(=O)Cc2ccccn2)[C@@H](CO)O1	3	4	-1.5
CC=Cc1ccc2n(c1=O)C[C@H]1[C@H](CO)[C@@H](C(=O)NCc3ccc(F)cc3)N(C)[C@@H]21 (mixture of isomers)	-3	0	-3.6
Cc1ccccc1-c1ccc([C@@H]2[C@@H](CO)N3CCCCN(C(=O)CN4CCOCC4)C[C@@H]23)cc1	3	0	3.0
CCC(=O)NC[C@@H]1[C@@H](c2ccccc2)[C@H](CO)N1C(=O)C1CCC1	-4	-7	2.3
CCS(=O)(=O)N1CC(=O)N2[C@H](C1)[C@@H](c1ccc(C#CCC(C)C)cc1)[C@@H]2CO	0	0	0.2
CO[C@H](CN(C)C(=O)c1cnccn1)[C@@H](C)CN([C@@H](C)CO)S(=O)(=O)c1ccc(F)cc1	1	-1	2.3
CCCNC(=O)N1[C@H](C#N)[C@H](c2ccc(-c3ccccc3F)cc2)[C@@H]1CO	-1	-1	0.3
O=C(C[C@@H]1CC[C@@H](NC(=O)c2ccc3c(c2)OCO3)[C@H](CO)O1)NCc1ccc(Oc2ccccc2)cc1	u	x	x
O=C(C[C@@H]1C[C@@H]2c3cc(NC(=O)Nc4ccccc4)ccc3O[C@@H]2[C@H](CO)O1)NCc1ccccc1	2	2	-0.1
COCC(=O)N1[C@@H](CO)[C@@H](c2ccccc2)C12CN(C(=O)Nc1ccccc1F)C2	-5	-4	-1.4
CCNC(=O)C[C@H]1CC[C@H]2[C@@H](COC[C@@H](O)CN2C(=O)Nc2ccc(Cl)c(Cl)c2)O1	20	3	17
O=C(N[C@H]1CC[C@@H](CC(=O)N2CCOCC2)O[C@H]1CO)c1cccc(F)c1	10	7	3.1
COc1ccc(NC(=O)Nc2cccc3c2O[C@@H](CN(C)Cc2ccc(C(=O)O)cc2)[C@H](C)CN([C@H](C)CO)C3=O)cc1	2	-1	2.8
O=C(C[C@@H]1CC[C@@H](NC(=O)CN2CCOCC2)[C@@H](CO)O1)NCCc1ccncc1	-3	-3	-0.1
O=C1N[C@H](Cc2ccccc2)COCc2cn(nn2)CC[C@H]1Cc1cccc(Cl)c1	1	1	0.3
COc1cccc(NC(=O)N2C[C@H](O)COC[C@@H]3O[C@@H](CC(=O)NC4Cc5ccccc5C4)CC[C@H]32)c1	5	12	-6.2
Cc1ccccc1-c1ccc([C@@H]2[C@H]3CN(C(=O)Cc4ccccn4)CC(=O)N3[C@H]2CO)cc1	3	-5	8.0
O=C(NCC[C@H]1CC[C@@H](NC(=O)C2CCOCC2)[C@H](CO)O1)c1cc(Cl)cc(Cl)c1	2	7	-5.3
O=C(C[C@@H]1C[C@H]2c3cc(NC(=O)Nc4ccc(C(F)(F)F)cc4)ccc3O[C@H]2[C@@H](CO)O1)NCC1CC1	7	6	0.1
CN1c2ccc(Br)cc2[C@@H]2[C@@H](CCN2C(=O)c2cccc(F)c2)[C@@H]1CO	8	6	1.4
CCCNC(=O)N1[C@H](CO)[C@@H](c2ccccc2)C12CN(C(=O)CC1CC1)C2	9	0	8.9
CCCNC(=O)N1C[C@H]2[C@@H](c3ccccc31)[C@@H](CO)N2C(=O)NCCC	-1	4	-5.1

More structures follow:
SMILES	DUX4 inh	DUX4 inh difference	DUX4 inh control
CCc1cnc(N2[C@H](C#N)[C@H](c3ccc(C#Cc4ccccc4F)cc3)[C@@H]2CO)s1	2	0	1.7
CC(C)[C@H]1CC=CC[C@H](C)Oc2ccccc2C(=O)N(C)[C@H](C(C)C)C(=O)N1 (mixture of isomers)	0	-1	0.8
C[C@@H]1CN([C@H](C)CO)C(=O)c2cc(N(C)C)ccc2O[C@H]1CN(C)S(=O)(=O)c1cccs1	3	-1	3.8
CCS(=O)(=O)NCC[C@@H]1CC[C@@H](NS(=O)(=O)c2ccccc2C)[C@@H](CO)O1	-3	-3	-0.2
CO[C@H]1CN(C)C(=O)c2ccc(NC(=O)C3CCC3)cc2OC[C@H](C)N(Cc2ccccn2)C[C@@H]1C	1&4	-3&3	4.1&0.7
O=C(C[C@@H]1CC[C@@H]2[C@H](COC[C@@H](O)CN2Cc2cc(F)ccc2F)O1)N1CCc2ccccc2C1	u	x	x
CC(C)COC(=O)N(C)C[C@H]1OCc2cn(nn2)CCCC(=O)N([C@H](C)CO)C[C@@H]1C	3	4	-1.0
CO[C@H](CN(C)C(=O)c1cc(Cl)cc(Cl)c1)[C@H](C)CN(C(=O)Nc1ccc(F)cc1)[C@H](C)CO	2	2	-0.6
CN1C[C@H]2[C@@H](c3ccccc31)[C@H](CO)N2C(=O)Nc1ccccc1Cl	6	-2	8.1
CCc1cnc(N2[C@H](CO)[C@@H](c3ccc(C#CCC4CCCC4)cc3)[C@@H]2C#N)s1	-4	-1	-3.5
CO[C@H]1CN(C)C(=O)c2ccc(NC(C)=O)cc2OC[C@H](C)N(Cc2cccnc2)C[C@H]1C	9	7	1.6
CC(=O)N1[C@H](CO)[C@@H](c2ccccc2)[C@@H]1CN(C(=O)c1ccccc1)C(C)C	5	0	4.9
O=C(C[C@H]1CC[C@@H]2[C@H](COC[C@H](O)CN2Cc2cc(F)cc(F)c2)O1)Nc1nccs1	2	2	0.2
CO[C@@H]1CN(C)C(=O)c2ccc(NC(C)=O)cc2OC[C@@H](C)N(C(=O)NC2CCCCC2)C[C@H]1C	1	4	-2.5
CC(C)C#Cc1ccc([C@H]2[C@@H](C#N)N(C(=O)C3CC3)[C@H]2CO)cc1	4	6	-1.6
CO[C@@H]1CC[C@@H]2CCN(C)C(=O)CCCN(C)C(=O)c3cc(C#N)ccc3OC[C@@H]1O2	3	-1	4.3
CN(C)C(=O)C[C@H]1CC[C@@H]2[C@H](COC[C@@H](O)CN2C(=O)C2CCOCC2)O1	0	-2	1.2
COc1ccc(C#Cc2ccc([C@H]3[C@@H](CO)N4C(=O)CN(C(=O)C5CCOCC5)C[C@H]34)cc2)cc1	0	-2	1.9
C[C@@H]1CN([C@H](C)CO)C(=O)c2cccc(NC(=O)c3nc4ccccc4s3)c2O[C@@H]1CN(C)C(=O)Nc1ccc2c(c1)OCO2	-2	-2	0.0
C[C@@H]1CN([C@@H](C)CO)C(=O)c2cc(C#Cc3ccccc3)cnc2O[C@H]1CN(C)C(=O)c1ccccc1	0	-2	2.3
CS(=O)(=O)N1C[C@@H](O)COC[C@@H]2O[C@H](CC(=O)NC3Cc4ccccc4C3)CC[C@H]21	7	10	-3.1
O=C(C[C@H]1C=C[C@H](NC(=O)C2CCC2)[C@H](CO)O1)NCCCN1CCOCC1	3	-1	3.3
CS(=O)(=O)N1[C@@H]2Cn3c(ccc(-c4cccc(F)c4)c3=O)[C@H]1[C@@H](C(=O)N1CCCCC1)[C@@H]2CO	4	-5	8.6
COc1ccc2c3c([nH]c2c1)[C@H](CO)N(C(=O)c1cnccn1)CC31CN(S(=O)(=O)c2ccccc2)C1	6	-7	14
COc1ccc([C@@H]2C/C=C\C[C@@H](c3ccc(F)cc3)NC(=O)CCC(=O)N2)c(OC)c1	-2	-6	3.7
O=C(C[C@H]1C[C@@H]2c3cc(NC(=O)c4cccnc4)ccc3O[C@@H]2[C@H](CO)O1)NCC1CC1	7	8	-1.2
CC(C)NC(=O)N(C)C[C@@H]1OCc2cn(nn2)CCCC(=O)N([C@@H](C)CO)C[C@H]1C	-2	0	-2.1
CCNC(=O)[C@H]1[C@H](CO)[C@H]2Cn3c(ccc(-c4cccc(F)c4)c3=O)[C@H]2N1Cc1cc(F)ccc1F	-4	1	-5.4
CC(C)NC(=O)N1[C@H](CO)[C@H](c2ccccc2-c2ccc(F)cc2)[C@@H]1C#N	2	10	-8.1
CC(C)CC#Cc1ccc([C@@H]2[C@H]3CN(C(=O)c4cnccn4)CC(=O)N3[C@H]2CO)cc1	5	-3	8.1
C[C@H](CO)N1C[C@H](C)[C@H](CN(C)C(=O)C2CCCCC2)Oc2ncc(Br)cc2C1=O	1	-1	2.1
O=C(CC1CC1)N1CC2(C1)[C@@H](c1ccccc1)[C@H](CO)N2C(=O)c1ccccn1	8	10	-2.7
COc1cccc(-c2ccc([C@H]3[C@@H](C#N)N(C(=O)c4ccccn4)[C@H]3CO)cc2)c1	u	x	x

Structures shown so far with an aryl methoxy group, in the order listed:
SMILES	DUX4 inh	DUX4 inh difference	DUX4 inh control
COc1cccc(CN(C)C[C@H]2OCc3cnnn3CCCC(=O)N([C@@H](C)CO)C[C@@H]2C)c1	-1	-4	2.9
COc1ccc(NC(=O)Nc2ccc3c(c2)C(=O)N([C@H](C)CO)C[C@@H](C)[C@H](CN(C)S(=O)(=O)c2cccs2)OCCCC[C@@H](C)O3)cc1	2	2	-0.4
COc1cccc(S(=O)(=O)Nc2ccc3c(c2)[C@@H]2C[C@@H](CC(=O)N4CCCCC4)O[C@H](CO)[C@@H]2O3)c1	1	-2	3.0
CCCNC(=O)N1CCC2(CC1)CN(Cc1cccc(OC)c1)[C@@H](CO)c1[nH]c3cc(OC)ccc3c12	3	-3	6.0
COc1ccc(NC(=O)Nc2cccc3c2O[C@@H](CN(C)Cc2ccc(C(=O)O)cc2)[C@H](C)CN([C@H](C)CO)C3=O)cc1	2	-1	2.8
COc1cccc(NC(=O)N2C[C@H](O)COC[C@@H]3O[C@@H](CC(=O)NC4Cc5ccccc5C4)CC[C@H]32)c1	5	12	-6.2
COc1ccc(C#Cc2ccc([C@H]3[C@@H](CO)N4C(=O)CN(C(=O)C5CCOCC5)C[C@H]34)cc2)cc1	0	-2	1.9
COc1ccc2c3c([nH]c2c1)[C@H](CO)N(C(=O)c1cnccn1)CC31CN(S(=O)(=O)c2ccccc2)C1	6	-7	14
COc1ccc([C@@H]2C/C=C\C[C@@H](c3ccc(F)cc3)NC(=O)CCC(=O)N2)c(OC)c1	-2	-6	3.7
COc1cccc(-c2ccc([C@H]3[C@@H](C#N)N(C(=O)c4ccccn4)[C@H]3CO)cc2)c1	u	x	x

Assay outcomes from PubChem.

This is a subset; count on the stated rates, not on these rows.
